# HTT promoter inh – inhibitors of huntingtin promoter activity. Potency, µM (highest dose often 57.5 µM), without a hit: top-dose activity change, negative = inhibition, usual class: inhibitors. 0.93% of 48,000 active. AID 1508623. HEK293 HTT promoter firefly luciferase reporter (activity 0% = vehicle and -100% = no light), 24 h; active = well fitted inhibition curve with a large enough effect; inconclusive = small, poorly fitted or top-dose-only effect; inactive = no such curve, though single readings can be large or run the other way; also: nearly all actives have a fitted effect of over 50% in size
#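 HEK293 cells carrying firefly luciferase reporters were seeded at 2,500 per well in Opti-MEM and cultured for 24 h. They were then treated with compounds at up to 57.5 uM final for 24 h at 37 degrees C before Dual-Glo luminescence readout.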
# PMP22 txn – modulators of PMP22 gene transcription in S16 Schwann cells; 2% of 43,000 active; S16 Pmp22-F2sN Schwann cells (luciferase reporters placed in the Pmp22 gene), FLuc/NLuc coincidence luminescence, 24 h; AID 1508649; Potency, µM (series often up to 57.5 µM), without a hit: at the top dose activity change, negative = inhibition, actives largely listed as inhibitors; active = clear falling dose curves in both reporters; inconclusive = both reporters move, but less clearly or upward; inactive = either reporter flat; the % is the NLuc reporter signal; also: % is scaled to controls: 0 for no effect and ±100 for the full control effect; some results filed as inactive show a strong effect at the top dose
#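 Luminescent read-out of sequential FLuc and NLuc signals from a reporter embedded in the Pmp22 3' UTR of S16 Schwann cells, taken after 24 h compound exposure at 37C; compounds reducing both signals score as inhibitors of expression.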
# * marks the source's active call; other numbers are inactive results; ? = inconclusive; . = no result given; [ ] = another dose, or the depositor's remark. Potency is read from the fitted curve at half-maximal effect.
SMILES,HTT promoter inh,PMP22 txn
COc1ccc(OC)c(CCNC(=O)c2cc3cccc4c3n2CCS4)c1,-24.1%,-14.5%
COc1ccc(CC2=NN3C([C@@H](CCc4ccccc4)[C@@H](C)O)=NC(C)C3C(=O)N2)cc1OC (stereo partly specified),45.1%[activator],.
CCOc1ccc(C(=O)c2cnc3ccc(Cl)cc3c2S(=O)(=O)c2ccc(C)cc2)cc1,-11.9%,14.1µM*
COc1ccc(-c2nc3ccccc3o2)cc1NC(=O)c1ccc(-c2ccc(C)c(Cl)c2)o1,-3.1%,8.5%
O=C(CCNS(=O)(=O)c1ccc2c(c1)CCN2C(=O)C1CC1)Nc1ccc(F)cc1F,?,?
Cc1ccc(C)c(N2CCN(C(=O)c3nn(C)c4c3CS(=O)(=O)c3ccccc3-4)CC2)c1,?,?
Cc1ccc(-c2nn(CC(=O)Nc3cccc(C(F)(F)F)c3)c(=O)c3ccccc23)cc1,?,3.2%
COc1cccc(C(=O)CN2CCN(S(=O)(=O)c3ccc(Cl)cc3)CC2)c1,-4.4%,4.1%
CC(CNC(=O)c1ccc2c(c1)nc1n2CCCCC1)c1ccccc1 (stereo unspecified),9.5%,-1.3%
COc1ccc(CNC(=O)C(Cc2ccccc2)NS(=O)(=O)c2ccc3c(c2)CCN3C(C)=O)cc1 (stereo unspecified),-29.5%,-6.3%
COc1ccc(C(=O)Nc2ccc(-c3nc4ccccc4s3)cc2C)cc1Cl,56.8%[activator],?
COc1ccc(C(=O)Nc2nc3c(s2)CCCC3)cc1Cl,1.7%,?
Cc1nc(-c2cccc(S(=O)(=O)N3CCC(C(=O)NCc4ccccc4Cl)CC3)c2)no1,?,-15.1%
Cc1cc2c(cc1C)NC(CC(=O)Nc1ccccc1SC(F)(F)F)C(=O)N2 (stereo unspecified),-6.0%,?
CCc1cccc(NC(=O)c2cc3c(s2)-c2ccccc2OC3)c1,14.3%,-5.4%
COc1cc(/C=C(\C#N)c2nc3ccccc3[nH]2)cc(Cl)c1OCc1ccccc1Cl,?,?
Cc1ccc(-c2nnc(Nc3ccc(C(=O)N(C)C)cc3)c3ccccc23)cc1S(=O)(=O)N(C)C,-13.1%,-24.6%
Cc1c(CC(=O)NCCc2ccccc2F)c(=O)oc2c(C)c3occ(C(C)(C)C)c3cc12,-21.8%,-7.0%
CCOC(=O)c1ccc(NC(=O)CCc2c(C)n(CC)c3cc(-c4ccccc4OC)nn3c2=O)cc1,-2.0%,5.6%
O=C(Nc1ccc2nc(SCCOc3ccccc3Cl)sc2c1)c1ccco1,?,?
CCc1ccc(Nc2sc(C(=O)c3ccc(F)cc3)c(N)c2S(=O)(=O)c2ccccc2)cc1,-20.3%,-11.9%
Cc1ccc(OCC(=O)NCC(=O)OCc2cc(=O)n3nc(C(C)C)sc3n2)cc1,-25.8%,?
Cc1cccc(CNC(=O)c2sc3ncnc(N(C)C4CCCCC4)c3c2C)c1,-28.2%,?
CCN(CC)S(=O)(=O)c1ccc2c(c1)nc(CN(C)C(=O)Nc1ccc(Cl)cc1)n2C,6.6%,-50.3%
COc1ccc(NC(=O)c2cc3nc(-c4ccc(C)c(C)c4)cc(C(F)(F)F)n3n2)cc1,-4.3%,?
Cc1ccc(-c2cn3c(n2)sc2cc(C(=O)NCc4cccs4)ccc23)cc1,3.6%,-14.6%
Cc1cc(NC(=O)N(C)CCc2c(C)nn(C)c2C)ccc1Br,-21.1%,5.4%
COc1ccc(NC(=O)NC2COc3ccccc3C2)c(OC)c1 (stereo unspecified),0.4%,-0.6%
Cn1c(SCC(=O)N2CCOCC2)ncc(C(=O)Nc2ccc(F)cc2)c1=O,0.0%,?
CCOc1ccc(CCNC(=O)c2cc3cc4cc(OC)ccc4nc3s2)cc1OCC,-14.8%,?
CC(C)c1cnc2c(c1SCC(=O)NCc1ccccc1Cl)c(=O)n(C)c(=O)n2C,-1.6%,-18.9%
COc1cccc(C2=NS(=O)(=O)N(C)C(C(=O)Nc3cccc(O)c3)=C2)c1,?,?
Cc1ccc(-c2nc(CS(=O)CC(=O)O)c(C)o2)cc1 (stereo unspecified),?,2.7%
CCC(Sc1nnc2c3ccccc3n(CC)c2n1)C(=O)Nc1nnc(C(C)C)s1 (stereo unspecified),-12.6%,0.4%
COc1ccc(C(=O)Nc2ccc3oc(-c4ccc5ccccc5c4)nc3c2)cc1Br,-4.4%,?
CN(C(=O)c1cc2c(s1)-c1ccc(Cl)cc1SC2)c1cccc(C(F)(F)F)c1,10.2%,-1.7%
Cc1ccc(C)n1-c1nnc(N2CCCC(C(=O)NCc3ccc(Cl)cc3)C2)s1 (stereo unspecified),?,?
Cc1cccc(C(=O)N2CCc3cc(CNS(=O)(=O)c4ccc(F)c(Cl)c4)ccc32)c1,-10.3%,-28.4%
O=C(CSc1ccc2ccccc2n1)Nc1nsc(-c2ccc(Cl)cc2)n1,5.8%,25.6%
CCOc1ccc(NC(=O)C(CC)n2nc(-c3ccc(C)c(C)c3)ccc2=O)cc1 (stereo unspecified),-26.0%,22.7%
COc1ccccc1CNc1ccc(-c2nc(-c3cccc(C)c3)no2)cc1[N+](=O)[O-],-0.5%,-8.2%
Cc1ccc2nc(NS(=O)(=O)c3ccc(Cl)cc3)c(Nc3ccc(C(=O)O)cc3)nc2c1,0.7%,-10.6%
COc1cccc(CNCCCSc2nnnn2C)c1OC,3.6%,-9.6%
CCCn1c2ccccc2c2cnn(CC(=O)NCCc3ccc(C)cc3)c(=O)c21,-9.2%,-29.8%
O=C(NCc1cccc(Cl)c1)NCc1noc2ccccc12,2.4%,9.0%
CCC(CC)C(=O)Nc1nnc(SCc2cc(=O)n3cccc(C)c3n2)s1,?,?
Cc1cccc(C(=O)Oc2c(Sc3ccccc3)c(C)nn2C(C)(C)C)c1,?,?
Fc1ccc(-n2ncc3c(N4CCN(Cc5ccccc5)CC4)ncnc32)cc1,5.9%,-106.5%
COc1ccc(CCNC(=O)c2nc(SCc3ccccc3F)ncc2Cl)cc1OC,17.8µM*,?
O=C1Nc2c(c(=O)[nH]c(=O)n2-c2ccc(F)cc2)C1(NS(=O)(=O)c1ccc(Cl)cc1)C(F)(F)F (stereo unspecified),-10.3%,8.1%

# New compounds follow:
SMILES,HTT promoter inh,PMP22 txn
Cc1ccccc1NC(=O)c1sc2nc(-c3cc4ccccc4oc3=O)[nH]c(=O)c2c1C,-1.6%,-14.6%
Cc1ccc(-n2nc3c(N4CCC(C(=O)NCc5ccccc5Cl)CC4)nnc(C)c3c2C)cc1,-2.2%,?
Oc1c(C(c2ccccc2Cl)N2CCN(Cc3ccccc3)CC2)sc2nc(-c3ccco3)nn12 (stereo unspecified),-10.3%,-6.9%
CCOC(=O)c1cccc(NC(=O)C2(S(=O)(=O)c3ccc(C)cc3)CC2)c1,-0.7%,-25.6%
Cc1ccc(CNC(=O)C(=O)Nc2c3c(nn2-c2ccccc2)CSC3)cc1,-23.0%,?
CCc1ccc(N2C(=O)CS(=O)(=O)C23C(=O)N(Cc2ccccc2)c2ccccc23)cc1 (stereo unspecified),?,?
CCOC(=O)c1c(-c2ccc(C)cc2)csc1NC(=O)c1nc(SC(C)C)ncc1Cl,-5.8%,?
CCCN(CCC)CCCNC(=O)c1cc2c(=O)oc3ccc(C)cc3c2s1,-11.4%,?
Cc1cccc(NC(=O)CCS(=O)(=O)c2cccc3nsnc23)c1C,-7.6%,-29.5%
CN1C(=O)Cc2cc(S(=O)(=O)CCC(=O)Nc3ccc(F)c(Cl)c3)ccc21,-10.5%,-12.2%
CC(C)(C)OC(=O)N1CCC(c2c(C(=O)N3CCN(Cc4ccccc4)CC3)cnn2-c2cccc(Cl)c2)CC1,?,-28.5%
CCN(CCCc1ccccc1)CCCc1ccccc1,-0.8%,.
CCOc1ccc(CCNC(=O)CCn2c(=O)c3cccn3c3ccc(F)cc32)cc1OCC,0.8%,-11.4%
CC(C)N(C(=O)CSc1cn(CC(=O)N2CCCCCC2)c2ccccc12)C(C)C,?,?
Cc1cccc(-n2c(CNC(=O)c3cccc(F)c3)nnc2SCC(=O)Nc2ccccc2F)c1,-8.6%,-5.0%
CCN(CC)C(=O)Cn1c(=O)n(CCCCCC(=O)Nc2ccccc2)c(=O)c2sccc21,-0.4%,?
COc1ccccc1CNC(=O)c1ccc2[nH]c(C)c(C)c2c1,-3.8%,-5.1%
CCOc1ccc(C(=O)Nc2nnc(S(=O)(=O)N(CC)c3ccccc3C)s2)cc1,?,4.4%
COc1cc(OC)cc(C(=O)Nc2ccc3nc(N4CCCCC4)cc(C)c3c2)c1,-28.5%,?
Cc1c2cnn(CC(=O)NCc3ccc(F)cc3)c(=O)c2c(C)n1Cc1ccccc1F,-3.7%,-4.5%
Cc1c(Nc2nc3ccccc3n3c(C)nnc23)cccc1C(=O)O,-8.5%,-2.6%
Cc1ccc(NC(=O)CN2C(=O)C(c3ccccc3)=NC23CCCCC3)cc1C,?,?
Cc1cc(C)cc(-n2c(SCC(=O)N3CCC(C)CC3)nc3c([nH]c4ccccc43)c2=O)c1,-8.3%,-29.4%
CC(C)CCn1c(=O)c2cccnc2n(CC(=O)Nc2ccccc2F)c1=O,-12.7%,-1.7%
Cc1cccc(N(C)C(=O)C2CCC(CNS(=O)(=O)c3cccc4nsnc34)CC2)c1 (stereo unspecified),?,-19.1%
Cn1c(=O)n(-c2cccc(Cl)c2)c(=O)c2sc3ccccc3c21,-14.5%,10.8%
CCc1nn(CC(=O)Nc2c(C)cc(C)cc2C)c(=O)c2cc3sccc3n12,-5.5%,-30.7%
Cc1cccc(OC(=O)CSc2nnc(-c3cccs3)o2)c1C,0.3%,-16.6%
O=C(NCc1cccc(Cl)c1)c1cc2c(s1)-c1ccccc1SC2,-21.3%,-22.5%
Cc1ccc(SCC(=O)Nc2ccc3oc(-c4ccccc4F)nc3c2)cc1,0.0%,-0.3%

# Overlap with the part before: 7 entries, then new ones.
SMILES,HTT promoter inh,PMP22 txn
CC(C)CCn1c(=O)c2cccnc2n(CC(=O)Nc2ccccc2F)c1=O,-12.7%,-1.7%
Cc1cccc(N(C)C(=O)C2CCC(CNS(=O)(=O)c3cccc4nsnc34)CC2)c1 (stereo unspecified),?,-19.1%
Cn1c(=O)n(-c2cccc(Cl)c2)c(=O)c2sc3ccccc3c21,-14.5%,10.8%
CCc1nn(CC(=O)Nc2c(C)cc(C)cc2C)c(=O)c2cc3sccc3n12,-5.5%,-30.7%
Cc1cccc(OC(=O)CSc2nnc(-c3cccs3)o2)c1C,0.3%,-16.6%
O=C(NCc1cccc(Cl)c1)c1cc2c(s1)-c1ccccc1SC2,-21.3%,-22.5%
Cc1ccc(SCC(=O)Nc2ccc3oc(-c4ccccc4F)nc3c2)cc1,0.0%,-0.3%
CC(C)c1ccc(Cc2cnc(NC(=O)c3ccc4c(c3)CC(c3ccccc3)OC4=O)s2)cc1 (stereo unspecified),?,-6.4%
COc1ccc(NC(=O)CCCOc2cc(=O)n(C)c3ccccc23)c(OC)c1,23.8%,?
COc1cc(CN2CCc3nc(N4CCN(c5ncccn5)CC4)ncc3C2)cc(OC)c1OC,?,?
Cc1ccc(CCNC(=O)CS(=O)Cc2nc(-c3ccccc3C)oc2C)cc1 (stereo unspecified),-27.1%,14.3%
C[C@@H]1C[C@H]2[C@@H]3CCC4=CC(=O)C=C[C@]4(C)[C@@]3(F)[C@@H](O)C[C@]2(C)[C@H]1C(=O)CO,2.6%,.
Cc1ccc2nc(CN3CCN(S(=O)(=O)c4ccc(C(C)C)cc4)CC3)oc2c1,-14.5%,?
COC(=O)c1ccc(Oc2nc3c(c(=O)n(C)c(=O)n3C)n2Cc2ccc(Cl)c(Cl)c2)cc1,-12.4%,-13.0%
Cc1ccc(-n2c(=O)c3c(c4cc(C)ccc4n3C)n(Cc3ccc(F)cc3)c2=O)cc1,11.2%,-21.9%
COc1ccc(OC)c(NS(=O)(=O)c2ccc3[nH]c4c(c3c2)CCCCC4)c1,?,?
Cc1ccc(NS(=O)(=O)c2ccc3c(c2)C(C(C)C)C(=O)N3)cc1C (stereo unspecified),-27.4%,?
COc1cccc(C2c3c(-c4ccccc4O)n[nH]c3C(=O)N2Cc2cccnc2)c1 (stereo unspecified),-24.7%,-23.7%
CCC(=O)Nc1ccccc1-c1nc2ccccc2n(CC(=O)Nc2ccccc2OC)c1=O,-23.5%,?
COc1cc(NS(=O)(=O)c2ccc3c(c2)OCC(C(=O)N2CCCC2)O3)cc(OC)c1 (stereo unspecified),14.1µM*,?
Cc1ccc(-n2nc3c(N4CCC(C(=O)NC5CCCCC5)CC4)nnc(C)c3c2C)cc1,-16.0%,-20.3%
CCn1c2ccccc2c2nnc(N3CCN(c4cccc(Cl)c4)CC3)nc21,6.8%,-12.8%
CC(C)Cc1ccc(S(=O)(=O)N2CCC(c3ccncc3)CC2)cc1,15.8µM*,?
O=C(COCc1cc(-c2ccco2)on1)Nc1cccc(O)c1,8.8%,-20.0%
Cc1ccc(C)n1-c1nnc(N2CCC(C(=O)NCc3ccc(F)cc3)CC2)s1,-27.7%,?
CCN1CCN(c2cc(C)c3cc(NC(=O)c4cc(OC)cc(OC)c4)ccc3n2)CC1,50.3%[activator],?
COc1ccccc1-n1ncc2c(=O)[nH]c(SCC(=O)Nc3cccc(F)c3)nc21,-25.2%,?
O=C(C1CCN(S(=O)(=O)c2cccs2)CC1)N1CCN(c2ccccc2F)CC1,-11.5%,-11.6%
